Compound activity (PubChem)
RE007 growth inh = less growth of the S. pombe RE007 Vpr strain | Potency, µM (series often up to 92.2 µM), for the others: top-dose activity change, negative = less growth | 360,000 compounds, 0.21% hits | S. pombe RE007 Vpr strain, BacTiter-Glo ATP luminescence, 24 h; control for the full effect not named in the record; active = well fitted falling curve with a large enough effect; inconclusive = small, poorly fitted or top-dose-only effect; inactive = no such curve, though single readings can be large or run the other way;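 further: nearly all actives have a fitted effect of over 50% in size; the assay follows cell death caused by Vpr and the record does not say whether a fall means rescue or toxicity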
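Fission yeast RE007 carrying one integrated HIV-1 vpr copy, seeded at OD 0.01 in PMG+AL medium with 23 nL pinned compound. Grown 24 h at 30 degrees; viability read by BacTiter-Glo luminescence after 5 min.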
2A StopGo = FMDV 2A StopGo reporter, luciferase signal | 410,000 compounds, 1.2% hits | AID 1159524 | Potency, µM (top dose mostly 57.9 µM), for inactives: at the highest dose signal change, negative = less light | human cells with a luciferase reporter of 2A StopGo recoding; control for the full effect not named in the record; active = well fitted falling curve with a large enough effect; inconclusive = small, poorly fitted or top-dose-only effect; inactive = no such curve, though single readings can be large or run the other way; tested in HEK293T cells; further: nearly all actives have a fitted effect of over 45% in size; luciferase light after 4 h
An asterisk follows results filed as active; ? = inconclusive; [ ] = dose if it differs, or a comment. On the % scale 0 is the no-effect control and ±100 the full control effect; potency means the concentration at half of the fitted maximal effect.

Compound	RE007 growth inh	2A StopGo
OCC[C@H]1C[C@H](O)[C@@H](O)[C@]2(CCCO2)O1	3.3%	-3.0%
CCN(CC)CCCC(C)n1c(C)cc(C(=O)NS(=O)(=O)c2ccc(C)cc2)c1C (configuration not stated)	-2.7%	-1.8%
Cc1cccc(N=Cc2ccccc2O)c1C	-18.8%	-6.2%
C[C@H]1CC[C@]2(O[C@@H](CCO)C[C@@H](O)[C@@H]2O)O1	18.5%	-0.7%
Cc1ccccc1S(=O)(=O)NC(=O)C1(C)CCN1C(=O)COc1ccc(Cl)cc1 (configuration not stated)	-0.8%	-13.2%
CN(C)c1cccc(CNC(=O)c2ccc3sc([C@@H]4O[C@H](CO)[C@H](O)[C@H](O)[C@H]4O)nc3c2)c1	-1.1%	-12.3%
Cc1ccsc1CNC(=O)C1(C)CCN1C(=O)C(C)C (configuration not stated)	4.0%[18.4 µM]	-1.8%
Cc1ccc2c(C)c(C(=O)N3CCC(C(N)=O)(N4CCCCC4)CC3)oc2c1C	-5.7%	11.1%
c1ccc(N2CCN(c3nccn4ccnc34)CC2)nc1	?	0.0%
CN(Cc1ccccc1)C(=O)[C@@H]1CCCN1C(=O)[C@@H]1CCCN1C(=O)c1ccc(Cl)cc1	-14.8%	-27.5%
CCOc1cc2c(c3c1C(c1ccccc1)N(S(=O)(=O)c1ccc(C)cc1)C3)C(=O)C=CC2=O (configuration not stated)	2.6%	?
CCOc1ccc(NS(=O)(=O)c2ccc(C(=O)NCC3CCCO3)cc2)cc1 (configuration not stated)	11.1%	-20.1%
COc1ccc(CN2CCN(Cc3c[nH]c4ccccc34)CC2)c(OC)c1	-13.6%	-9.8%
O[C@H]1CN(CC2CCCCC2)[C@@H](c2ccc(Cl)cc2)C[C@@H]1n1cc(-c2ccc(F)cc2)nn1	-13.7%	-21.9%
C[C@H]1COc2cc(N3CC[C@H](O)C3)ccc2S(=O)(=O)N1	4.0%	7.0%
COc1cccc(N2[C@@H](CC(C)=O)c3ccc(/C=C/C(C)=O)cc3S2(=O)=O)c1	-10.1%	?
CC1(C)CC(=O)C(C(c2ccc3c(c2)OCO3)C2C(=O)CC(C)(C)CC2=O)C(=O)C1	-8.6%[18.4 µM]	-13.4%
COc1ccc(-c2nc3cc(C)c(Br)c(C)n3c2Cc2ccccc2)cc1OC	-14.7%	-10.5%
O=C1CCC(C(=O)OCC(=O)Nc2ccc(OC(F)F)cc2)=NN1	-1.6%	-16.0%
C[C@@H]1CN([C@H](C)CO)C(=O)CCCn2nncc2CO[C@@H]1CN(C)C(=O)NC1CCCCC1	-0.3%	-4.6%
Cc1cc(NC(=O)CN2C(=O)/C(=C/c3ccc(C(C)C)cc3)SC2=S)no1	5.8%	47.6%[activator]
Cc1cccnc1C(NC(=O)C1CCN(CCCc2ccccc2)CC1)c1ccc(Cl)cc1 (configuration not stated)	-17.5%	-4.4%
COC(=O)[C@H]1C[C@H](OC(=O)Nc2cccs2)[C@@]2(O)CN(S(=O)(=O)c3ccc(C)cc3)CC2[C@H]1C(=O)OC (some centres not stated)	-6.7%	-22.2%
COC(=O)c1ccc2nc(C3CCCCC3)c(Cc3cccc(Cl)c3)n2c1	-12.9%	-13.3%
COC(=O)[C@]12CCCCC=C1N(CCc1ccc(OC)c(OC)c1)C(=O)[C@H](CC(=O)N1CCCCC1)C2	10.2%	-11.2%
COc1ccc(CN2CCC2(C)C(=O)NCCc2c[nH]c3ccccc23)c2ccccc12 (configuration not stated)	-3.4%	-24.2%
CCOC(=O)C1=CC[C@@H](c2ccccc2)N(S(=O)(=O)c2ccc(C)cc2)[C@H]1C=C(C)C	6.8%	?
Cc1nnc(SCC(=O)NC2(C#N)CCCCC2)n1N	13.3%	5.5%
COc1cc2sc3ccc(C#Cc4ccccn4)cc3c(=O)c2cc1OC	-10.9%	-5.9%
O=C1[C@H]2[C@@H](c3ccccc3)N[C@]3(CCCN(Cc4ccc(Cl)cc4)C3=O)[C@H]2C(=O)N1Cc1ccccc1	5.9%	?
CC1(C(=O)Nc2ccc3ccccc3c2)CCC(=O)N1CCCn1ccnc1 (configuration not stated)	-20.1%	0.9%
CCCn1c(SCC(=O)Nc2ccc(S(=O)(=O)N3CCOCC3)cc2)n[nH]c1=O	-2.7%	-24.3%
Fc1cccc(CN(C2=NCCN2)c2c(Cl)cccc2Cl)c1	-25.4%[18.4 µM]	-13.7%
C[C@H]1COc2cc(N3CCSCC3)ccc2S(=O)(=O)N1	-3.2%	-19.2%
COC(=O)[C@H](Cc1ccccc1)NC(=O)CC[C@H]1O[C@@H](n2ccc(=O)[nH]c2=O)[C@H](O)[C@@H]1O	-1.5%	-16.1%
CCCCCCn1c(SCC(=O)NC2CCS(=O)(=O)C2)nc2ccccc2c1=O (configuration not stated)	5.7%	3.9%
CCCCc1c(-c2ccccc2OC)ncn1CCc1ccccc1	-15.9%	?
CCOC(=O)C1(C)CCCN(C(=O)c2ccccc2C(F)(F)F)C1 (configuration not stated)	24.3%	-12.4%
COc1ccc(C(=O)Nc2nnc([C@@H]3C[C@H](O)[C@@H](CO)O3)s2)cc1	7.0%[18.4 µM]	4.1%
COc1ccc(-c2cc(NC=O)c3ncc(-c4cccc(C(=O)N(C)C)c4)n3c2)c(OC)c1	-10.6%	-19.1%
Cc1cnc(C2OCCO2)c2cccc(N)c12	0.6%	-3.0%
Cc1nc(N2CCCCC2)[nH]c(=O)c1CN(C)N=O	-3.5%	0.0%
COC(=O)C1=C[C@@H](C(=O)OC)[C@@H]2C3=C(C(=O)[C@@]2(C)NC(=O)c2ccccc2)[C@H](c2ccccc2)n2c(=O)n(-c4ccccc4)c(=O)n2[C@@H]3C1	6.1%	-16.2%
NC(Cc1ccccc1)c1csc(Nc2ccc(C(F)(F)F)cn2)n1 (configuration not stated)	3.6%[18.4 µM]	-20.9%
C[C@@H]1CCCCO[C@@H](CN(C)Cc2ccccc2)[C@@H](C)CN([C@H](C)CO)C(=O)c2cc(NC(=O)Nc3cccc4ccccc34)ccc2O1	-8.8%	0.0%
Cc1cc(Br)cn2c(Cc3cccc(F)c3)c(-c3ccc(Cl)cc3)nc12	-2.4%	-23.8%
CC(CN1CCN(CCOCCO)CC1)CN1c2ccccc2Sc2ccc(Cl)cc21 (configuration not stated)	7.0%	-6.6%
C[C@]12CCC(=O)C=C1C=C[C@@H]1[C@@H]2CC[C@@]2(C)[C@H]1CC[C@@]2(O)CCC(=O)O	-16.8%	-3.1%
COc1cccc(C(=O)C(=O)N2CCN(C(=O)OCc3ccccc3)CC2)c1	-13.4%	-17.4%
COC(=O)C1=C(c2ccc(S(C)(=O)=O)cc2)C[C@@H]2CC[C@H]1N2C(=O)NCCNC(C)=O	-2.0%	-5.4%
CC(=O)Nc1cc(-c2ccsc2)cn2c(-c3ccc(F)cc3)cnc12	0.6%[18.4 µM]	-17.8%
COc1ccc(NC(=O)C2Cc3c(-c4ccc(Cl)cc4)ccnc3O2)cn1 (configuration not stated)	-24.5%	?
CN(C)c1ccc(-c2cc(NC=O)c3ncc(-c4ccc(F)c(Cl)c4)n3c2)cc1	4.4%	-14.3%
CCOc1ccccc1N1CCN(CC(=O)Nc2nccs2)CC1	7.7%	?
COc1cc(CNC[C@H]2O[C@@H](n3cnc(C(N)=O)n3)[C@H](O)[C@@H]2O)ccc1OCc1cccc(Cl)c1	-26.8%	-9.0%
Cc1cn([C@H]2C[C@H](O)[C@@H](CNC(=O)[C@@H]3C[C@H](F)CN3)O2)c(=O)[nH]c1=O	6.1%	0.0%
CC1(C)CC(=O)C=C(c2ccc(Oc3ccccc3)cc2)C1=O	-6.7%	-22.6%
CSc1ccc(/C=C2\NC(=O)NC2=O)cc1	0.1%	5.3%
CCOC(=O)c1cccc(C2=C(CNC(=O)c3ccc([N+](=O)[O-])cc3)[C@H]3CC[C@@H](C2)N3Cc2ccccc2)c1	0.0%	-24.8%
COc1ccc(OC2(C)CCN(Cc3ccc(-c4ccccc4)o3)C2)cc1 (configuration not stated)	-18.2%	-14.3%

Filtered by structure, the entries above containing a thiophene ring, fused or not (three)
Compound	RE007 growth inh	2A StopGo
Cc1ccsc1CNC(=O)C1(C)CCN1C(=O)C(C)C (configuration not stated)	4.0%[18.4 µM]	-1.8%
COC(=O)[C@H]1C[C@H](OC(=O)Nc2cccs2)[C@@]2(O)CN(S(=O)(=O)c3ccc(C)cc3)CC2[C@H]1C(=O)OC (some centres not stated)	-6.7%	-22.2%
CC(=O)Nc1cc(-c2ccsc2)cn2c(-c3ccc(F)cc3)cnc12	0.6%[18.4 µM]	-17.8%

The list continues:
Compound	RE007 growth inh	2A StopGo
Cc1cc(NC(=O)OC(C)(C)C)c(-n2nnnc2C(C(=O)c2ccccc2)N2CCOCC2)cc1C (configuration not stated)	-16.1%	17.4%
Nc1ccn([C@@H]2O[C@H](C(=O)N3CCCN(Cc4cccs4)CC3)[C@@H](O)[C@H]2O)c(=O)n1	6.1%	-16.8%
CC(O)(c1cccc(F)c1)c1nc(-c2cncnc2)cs1 (configuration not stated)	-1.0%	0.0%
COc1ccc(-c2ccc3oc(-c4ccc(OC)cc4)c(C#CCCO)c3c2)cc1	5.3%	-22.8%
Cn1cc(CN2CCC(n3nccc3NC(=O)c3ccc4c(c3)OCO4)CC2)cn1	3.0%	-22.1%
COc1ccc(C(=O)NCCCN2CCCC2=O)cc1S(=O)(=O)N1CCOCC1	-6.8%	-4.4%
O=C1CCCCC1C(O)(C(=O)c1ccccc1)c1ccccc1 (configuration not stated)	-7.1%	-19.9%
Cc1c(C(=O)NCc2ccc3c(c2)OCO3)sc(=O)n1Cc1ccc(S(=O)(=O)N(C)C)cc1	7.5%[18.4 µM]	?
CC(=O)Nc1cccc(-c2ccnc3c2CC(C(=O)NCc2ccncc2)O3)c1 (configuration not stated)	-1.1%	-11.7%
COc1ccc(C(=O)NCC2CCCO2)cc1S(=O)(=O)NCc1ccc(Cl)cc1 (configuration not stated)	6.8%	21.0%
COCCNC(=O)c1cc2c(c(-c3cccc(-c4cccc(OC)c4)c3)n1)[C@H](CCO)N(S(=O)C(C)(C)C)C2 (some centres not stated)	4.1%	-11.1%
COc1cccc(C(=O)c2ccncc2C(=O)O)c1OC	9.2%	-19.1%
O=C(Nc1ccc(S(=O)(=O)Nc2ncccn2)cc1)c1cccc([N+](=O)[O-])c1	2.7%	-14.8%
CC(C)c1ccc(C(=O)Nc2ccc(S(=O)(=O)NC3=NCCCCC3)cc2)cc1	1.3%	0.0%
COCCCNC(=O)C[C@@H]1C[C@@]2(C(=O)OC)CCCCC=C2N(CCC2=CCCCC2)C1=O	-9.2%	-2.9%
CC(C)Nc1ncnc2c1ncn2[C@H]1CN(Cc2ccccc2)C[C@@H](CO)O1	-1.8%[18.4 µM]	-4.1%
COc1ccc(Cc2c(-c3ccc(C)cc3)nc3cc(C)c(Br)c(C)n23)c(C)c1	-1.4%	0.4%
COc1ccccc1N1CCN(S(=O)(=O)CCNC(=O)CC2CCCC2)CC1	-6.9%	?
Cc1ccc(OCCNC(=O)[C@H]2O[C@@H](n3cnc4c(N)ncnc43)[C@H](O)[C@@H]2O)cc1C	11.7%	-13.7%
CN1OC[C@@H]2CN(C(=O)c3cccc4ccccc34)[C@H](c3ccc(N4CCCCC4)cc3)C[C@@H]21	0.9%	-6.1%
Cc1cc2nc(-c3cccc(Br)c3)c(Cc3ccsc3)n2c(C)c1Br	-2.4%	-11.7%
O=S1(=O)CC(N2CCN(CCO)CC2)CN1Cc1cn(Cc2cccc(Cl)c2)nn1 (configuration not stated)	-2.9%	0.0%
CCNc1nc(-c2sc(NC(=O)C(C)(C)C)nc2C)c(-n2cc(-c3ccccc3)nn2)s1	6.3%	?
O=C(Nc1ccc(OCc2ccccc2)cc1)Nc1nnc([C@@H]2C[C@H](O)[C@@H](CO)O2)s1	0.9%	-1.0%
COC(=O)C1=C(c2cccc(OC)c2OC)C[C@@H]2CC[C@H]1N2C(=O)NCc1cccc2ccccc12	5.7%	3.2%
Cc1ccccc1NC(=O)Nc1nc(C(N)C2CCCCC2)cs1 (configuration not stated)	-6.0%[18.4 µM]	0.0%
CCOc1ccc(CCN2C(=S)N([C@@H](CC(C)C)CN3CCCC3CN3C(=S)NC[C@@H]3CC(C)C)C[C@@H]2CC(C)C)cc1 (some centres not stated)	-1.1%	-24.6%
Cc1ccc(NC(=O)C2(C)CCN2C(=O)CC(c2ccccc2)c2ccccc2)cc1 (configuration not stated)	4.8%[18.4 µM]	-24.4%
COc1ccc([C@H]2/C=C\CN(Cc3ccc(N(C)C)cc3)[C@@H](C)C(=O)N2Cc2ccc(F)cc2)cc1	1.2%	-14.6%
O=C(NN=Cc1ccccc1Cl)c1ccccc1	-21.0%	44.6%[activator]
COc1cccc(S(=O)(=O)N(C)C[C@@H]2OCc3cnnn3CCCC(=O)N([C@@H](C)CO)C[C@H]2C)c1	8.3%	?

The list is partial. The share of hits here may be higher or lower than overall.
